TRPML1 inh = inhibitors of human TRPML1 channel; TRPML1-inducible cells, Ca2+ dye fluorescence, FDSS; stronger effect = lower value; inhibition of EC80 agonist-evoked calcium signal; Q9GZU1; 0.02% of 390,000 active; activity change, negative = inhibition, % (test concentration not listed); in the data active means activity change below about -50%; inconclusive means about -30% to -50%; inactive means above about -30%;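 also: stimulus is agonist 54-4 at its EC80 concentration; % is scaled to controls: 0 for no effect and ±100 for the full control effect; compound concentration not given in the record; the text of the record puts the active cut at -80%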
Target sequence (Q9GZU1 whole entry, looked up): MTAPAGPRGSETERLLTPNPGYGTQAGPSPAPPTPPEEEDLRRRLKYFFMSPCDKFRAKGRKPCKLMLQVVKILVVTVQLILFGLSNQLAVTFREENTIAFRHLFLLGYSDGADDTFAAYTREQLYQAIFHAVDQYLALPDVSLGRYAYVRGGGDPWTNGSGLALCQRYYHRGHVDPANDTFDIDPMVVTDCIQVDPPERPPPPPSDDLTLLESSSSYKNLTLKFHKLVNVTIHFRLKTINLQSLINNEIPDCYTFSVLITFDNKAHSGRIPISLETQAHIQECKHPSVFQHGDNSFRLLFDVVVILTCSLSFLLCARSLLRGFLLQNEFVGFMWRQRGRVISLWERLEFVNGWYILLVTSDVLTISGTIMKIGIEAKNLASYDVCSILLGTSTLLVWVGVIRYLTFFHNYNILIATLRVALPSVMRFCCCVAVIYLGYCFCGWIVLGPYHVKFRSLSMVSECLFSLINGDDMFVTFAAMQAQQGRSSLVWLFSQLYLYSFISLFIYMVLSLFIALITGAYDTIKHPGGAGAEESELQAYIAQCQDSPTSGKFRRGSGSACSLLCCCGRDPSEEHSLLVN
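Tet-induced TRPML1-DL cells loaded with Ca8 no-wash calcium dye were read kinetically on FDSS. Compound addition was followed by EC80 agonist 54-4 (4 uM final); inhibition was read over 110 s.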
ClpP mod = qHTS Assay for Activators of ClpP; ATP-dependent Clp protease proteolytic subunit (Bacillus subtilis (strain 168)), P80244; purified B. subtilis ClpP, FRET peptide cleavage, 20 min; Potency, µM (top dose mostly 57.5 µM), for inactives: at the top dose activity change, negative = active; 1.9% of 340,000 active; active = well fitted falling curve with a large enough effect; inconclusive = small, poorly fitted or top-dose-only effect; inactive = no such curve, though single readings can be large or run the other way; also: potency is read from the fitted curve at half-maximal effect; the source files actives as falling curves though it sought activators and does not explain the sign; nearly all actives have a fitted effect of over 65% in size; many hits overshoot -100%
Target sequence (P80244 whole entry, looked up): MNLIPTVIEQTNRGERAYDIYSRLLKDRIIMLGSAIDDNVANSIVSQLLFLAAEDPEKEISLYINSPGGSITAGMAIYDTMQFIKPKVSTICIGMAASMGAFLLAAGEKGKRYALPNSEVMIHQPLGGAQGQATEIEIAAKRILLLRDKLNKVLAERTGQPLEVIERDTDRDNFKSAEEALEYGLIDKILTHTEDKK
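Buffer: 100 mM Tris/HCl pH8, 100 mM KCl, 0.05% low protease BSA, 2.5% glycerol, 0.01% Tween-20. ClpP 10 microg/mL final; 20 min RT; delta FRET normalized to ADEP and DMSO controls.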
Menin-MLL FL inh = displaces fluorescein MLL peptide from human menin; Fluorescence polarization, fluorescein-MLL peptide displacement from menin; FP activity change, % at 61.4 µM; 290,000 tested, under 10 active; inconclusive = falling polarisation curve, or a change in total fluorescence; inactive = total fluorescence flat and polarisation flat or rising; no compound was filed as active; the % refers to the polarisation; negative = inhibition;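 also: % of control where 0% means no effect; inhibitors lower the polarisation; unlabelled MLL peptide was the positive control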
gsp antagonist = gsp mutant antagonism | gsp-mutant cells, cAMP HTRF, 30 min; control for the full effect not named in the record | AID 624288 | 0.4% of 340,000 active | Potency, µM (series often up to 76.9 µM), without a hit: top-dose activity change, negative = inhibition, hits mostly inhibitors; active = falling curve of any shape with a large fitted effect; inconclusive = falling curve, mostly with a smaller effect; inactive = flat or rising curve; cell line not stated here;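 also: intracellular cAMP measured with PDE inhibitor Ro 20-1724 present during compound exposure; potency is read from the fitted curve at half-maximal effect; % is scaled to controls: 0 for no effect and ±100 for the full control effect; nearly all actives have a fitted effect of over 65% in size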
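Cells, 2000/well, grown 16–24 h in DMEM 10% FBS with 0.5 mg/ml G418, then compounds plus […] (300 uM addition stock), 30 min at 37C. cAMP read by HTRF (cAMP-d2 and anti-cAMP antibody-K in lysis buffer) after 30 min RT.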
TRPML1 agonist = agonists of human TRPML1 channel; Q9GZU1; TRPML1-expressing cells, Ca2+ dye fluorescence, FDSS; host cell line not named in the record; reference of the full effect not given here; activation, % (test concentration not listed); 0.12% of 410,000 active; in the data active = activation above about 50%; inconclusive = about 30% to 50%; inactive = below about 30%; also: 0% is about no effect; the text of the record puts the active cut at 80%
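Calcium fluorescence on an FDSS kinetic reader gave the read-out. Tet-induced TRPML1-DL cells were plated overnight, dye-loaded (Ca8 with quencher, 45-90 min, room temperature, dark), then read 110 s after compound addition, and again 110 s after 4uM final 54-4 (EC80).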
gsp agonist = activates gsp, the McCune-Albright syndrome mutation | gsp mutant cells, cAMP HTRF, 30 min; control for the full effect not named in the record | Potency, µM (doses to about 76.9 µM), inactives show at the highest dose activation (cAMP increase), actives largely listed as activators | 0.13% of 340,000 active | AID 624287; active = well fitted activation curve with a large enough effect; inconclusive = small, poorly fitted or top-dose-only effect, or another doubt; inactive = no such curve, though single readings can be large or run the other way; cell line not stated here;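 also: phosphodiesterase inhibitor Ro 20-1724 added with compounds to block cAMP breakdown; potency is read from the fitted curve at half-maximal effect; nearly all actives have a fitted effect of over 60% in size; about a fifth of the inactives were tested at one dose only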
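Cells stably selected in G418 were plated at 2000/well, grown 16-24 hr, then given compounds in DMSO with the PDE inhibitor […] (300 uM solution added) for 30 min at 37C; cAMP was read by HTRF.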
* marks the source's active call; other numbers are inactive results; ? = inconclusive; nt = not tested or not shown; [ ] = remark or other dose.

SMILES	TRPML1 inh	ClpP mod	Menin-MLL FL inh	gsp antagonist	TRPML1 agonist	gsp agonist
O=C(CSc1nnc(CNC(=O)c2ccc(F)cc2)o1)NCCc1ccccc1	-10	-2.2%	0.7	5%	1.1	-56%
CCCNC(=O)NCc1ccc(N2CCCC2=O)cc1	-2	0.8%	-5.0	3%	-0.1	-7%
CCOc1cccc(C(=O)N/N=C/c2ccoc2)c1	-18	-0.9%	nt	-4%	0.1	?
Cc1ccc(C(=O)NN2CCOCC2)cc1	9	0.8%	-6.0	5%	-0.8	-17%
CCNC(=O)/C(C#N)=C/c1c(N2CCOCC2)nc2ccccn2c1=O	-5	4.3%	6.1	-3%	0.2	24%
CCc1c(-c2ccccc2)nc2ccccc2c1C(=O)NCc1ccc(C)cc1	16	-3.0%	nt	nt	2.4	nt
CCOC(=O)Cn1c(S(=O)(=O)Cc2ccc(Cl)cc2)nc(-c2ccccc2)c1-c1ccccc1	11	-9.0%	2.2	-4%	1.2	14%
O=C(c1cccnc1)N1CCN(S(=O)(=O)c2ccc3ccccc3c2)CC1	-2	-3.3%	5.8	-19%	-1.3	4%
CCn1cc(CN2CCC(n3nccc3NC(=O)c3ccccc3C)CC2)cn1	26	0.9%	0.3	-3%	0.7	-53%[inhibitor]
COc1ccc(/C=N/OC(=O)c2ccc(Cl)cc2)c(Cl)c1OC	17	nt	-4.2	-4%	3.1	-18%
CC[C@]12c3[nH]c4cc(-c5ccco5)ccc4c3CCN1C(=O)[C@@H](CC(=O)NCC13CC4CC(CC(C4)C1)C3)C[C@@H]2C(=O)N1CCN(C(=O)C2CC2)CC1	33	3.9%	nt	-21%	1.1	nt
N/C(Cc1ccc([N+](=O)[O-])cc1)=N\OC(=O)c1ccc2ccccc2c1	7	-0.8%	-1.3	6%	-0.9	?
CC(=O)c1ccc(NS(=O)(=O)c2ccc(C(C)(C)C)cc2)cc1	13	-15%	1.9	-21%	0.5	-4%
CCOc1ccc(NC(=O)CCC(=O)Nc2nnc(CC)s2)cc1	-2	-0.5%	nt	-2%	-0.5	-8%
CCOC(=O)C(C)n1cnc2c(cnn2-c2ccc(Cl)cc2)c1=O (configuration not stated)	27	-14%	-3.5	11%	1.4	7%
CCc1ccc(NC(=O)N(C2CCCCC2)C(C)c2cccnc2)cc1 (configuration not stated)	14	3.8%	0.8	13%	0.4	-47%[inhibitor]
Cc1ccccc1C(=O)N1CCC(C(=O)Oc2ccc(C#N)cc2)CC1	-16	-3.6%	-3.9	-9%	0.5	?
COC(=O)c1sc(C(C)(C)C)cc1CS(=O)(=O)c1ccc(Cl)cc1	13	1.2%	-1.5	-22%	5.5	-9%
CCOC(=O)c1[nH]c(C)c(CCC(=O)Nc2cccc(SC)c2)c1C	13	-2.7%	nt	nt	0.0	nt
Nc1ccn([C@H]2CC[C@@H](CO)O2)c(=O)n1	2	-0.9%	?	6%	-0.1	nt
Cc1ccc(S(=O)(=O)NCCC(=O)OCC(=O)Nc2cccc(Cl)c2)cc1	-10	1.7%	nt	?	0.3	-10%
Cc1cccc2cc(C#N)c(N3CCOCC3)nc12	7	-5.4%	0.9	-1%	-1.5	-18%
CN(C)c1ccc(/C=N/Nc2nc3ccccc3o2)cc1	-13	3.5%	?	-5%	0.6	?
COc1cc(C=C2C(=O)c3ccccc3C2=O)cc(OC)c1OC	4	-1.1%	?	-1%	0.0	?
O=C(OCC(=O)N1CCc2ccccc21)[C@@H]1CC(O)CN1S(=O)(=O)c1ccccc1[N+](=O)[O-] (some centres not stated)	12	1.7%	nt	5%	2.0	2%

A few values from the list.
TRPML1 agonist, COc1cc(C=C2C(=O)c3ccccc3C2=O)cc(OC)c1OC is entered as 0.0
ClpP mod, CCNC(=O)/C(C#N)=C/c1c(N2CCOCC2)nc2ccccn2c1=O is entered as 4.3%
ClpP mod, CCc1c(-c2ccccc2)nc2ccccc2c1C(=O)NCc1ccc(C)cc1 is entered as -3.0%
gsp antagonist, CCc1ccc(NC(=O)N(C2CCCCC2)C(C)c2cccnc2)cc1 (configuration not stated) is entered as 13%
gsp antagonist, CCOc1ccc(NC(=O)CCC(=O)Nc2nnc(CC)s2)cc1 is entered as -2%
TRPML1 agonist, COc1ccc(/C=N/OC(=O)c2ccc(Cl)cc2)c(Cl)c1OC is entered as 3.1

The list goes on:
SMILES	TRPML1 inh	ClpP mod	Menin-MLL FL inh	gsp antagonist	TRPML1 agonist	gsp agonist
O=C(Nc1cccc([N+](=O)[O-])c1)c1ccc(CSc2ccccc2)cc1	11	1.2%	2.3	-5%	0.8	15%
COc1ccc(N2CCN(Cc3nc4c(c(=O)[nH]c(=O)n4C)n3Cc3ccccc3C)CC2)cc1	4	0.6%	nt	nt	-0.5	nt
CC(=O)NC12CC3CC(C1)CC(C(=O)N(C)CC(=O)Nc1cccc(F)c1)(C3)C2	-4	0.6%	nt	3%	-0.3	?
Cc1cccc(N2CCN(CCNC(=O)c3cc4c(s3)CS(=O)(=O)C4)CC2)c1C	12	0.7%	4.0	-3%	-0.3	6%
CN(C)CCC(=O)C(Cc1ccccc1)c1ccccc1 (configuration not stated)	16	nt	nt	10%	12	9%[15.4 µM]
CCOc1ccccc1N1CCN(C(=O)NCc2ccc(Cl)cc2)CC1	-14	nt	-4.3	-6%	0.1	20%[15.4 µM]
NC(=O)c1ccsc1NC(=O)CS(=O)(=O)c1ccc(F)cc1	-6	1.2%	nt	12%	0.2	-9%[15.4 µM]
C[C@@H]1CN([C@@H](C)CO)C(=O)c2cc(Br)cnc2O[C@@H]1CN(C)Cc1cncnc1	-3	0.9%	nt	nt	-0.9	-10%
CCOC(=O)c1c(C)c(C)n(Cc2ccc(OC)c(OC)c2)c1C	9	-1.2%	0.5	-9%	0.6	7%
Cc1ccc(CNC(=O)C2CCN(S(=O)(=O)c3ccc(Br)s3)CC2)cc1	21	nt	1.7	-2%	2.7	-13%
O=c1c2sc3ccccc3c2n(Cc2ccc(F)cc2Cl)c(=O)n1Cc1ccccc1	-11	4.1%	nt	nt	-0.6	nt
CC(C)(C)NC(=O)COC(=O)/C=C/c1ccc(F)cc1	13	1.2%	3.9	11%	-0.4	3%[15.4 µM]
CN(CC(=O)Nc1ccccc1C(F)(F)F)C(=O)Cn1c(=O)oc2ccccc21	4	-18%	nt	-9%	0.9	2%
CC1(C)Cc2nc3oc4c(=O)n(CC(=O)Nc5ccccc5)cnc4c3cc2CO1	29	nt	-1.8	-1%	-0.4	-36%[inhibitor]
CCOc1ccccc1/C=N/NC(=O)c1nnn(-c2nonc2N)c1CN1CCCCCC1	1	-2.5%	nt	-2%	-0.4	-12%
CCc1ccc(C2=NN(CCC(=O)NCc3cccs3)C(=O)CC2)cc1	5	0.9%	0.4	-2%	1.3	-8%
CN1CCN(c2ccccc2NC(=O)c2ccc(N3CCCCC3)c([N+](=O)[O-])c2)CC1	5	-1.7%	4.2	3%	0.8	-20%
CCC(CC)c1nnc(NC(=O)COc2ccc3c(C)cc(=O)oc3c2)s1	39	-22%	0.8	11%	-0.5	6%
CC(C)(C)[C@@H]1COC(=O)[C@H](Cc2ccc(F)cc2)CC/C=C\C[C@@H](CC(=O)NCCO)C(=O)N1	-4	-1.0%	nt	0%	0.0	nt
COc1ccccc1Nc1ccc([N+](=O)[O-])cc1N	51	-0.3%	14	-14%	2.8	?
CCc1ccc(C(=O)COC(=O)CNC(=O)CNS(=O)(=O)c2ccccc2)cc1	0	3.0%	nt	-7%	0.9	8%
CC1CCc2c(C(=O)NCc3ccco3)csc2C1 (configuration not stated)	-5	nt	2.3	-4%	2.1	-13%[15.4 µM]
CCOc1ccccc1NC(=O)C(OC(=O)c1cnccn1)c1ccccc1 (configuration not stated)	-5	0.4%	nt	3%	-0.8	-47%[inhibitor]
CCOC(=O)c1c(NC(=O)CCN2C(=O)c3cccc([N+](=O)[O-])c3C2=O)sc(C(=O)OC(C)C)c1C	-14	2.8%	2.2	2%	-0.3	-2%
Cc1ccccc1SCC(=O)NCC(c1ccc(F)cc1)N1CCOCC1 (configuration not stated)	9	-1.8%	nt	3%	1.5	?

An excerpt from above in order of number of heavy atoms, highest first.
SMILES	TRPML1 inh	ClpP mod	Menin-MLL FL inh	gsp antagonist	TRPML1 agonist	gsp agonist
CCOC(=O)c1c(NC(=O)CCN2C(=O)c3cccc([N+](=O)[O-])c3C2=O)sc(C(=O)OC(C)C)c1C	-14	2.8%	2.2	2%	-0.3	-2%
CN1CCN(c2ccccc2NC(=O)c2ccc(N3CCCCC3)c([N+](=O)[O-])c2)CC1	5	-1.7%	4.2	3%	0.8	-20%
CC(C)(C)NC(=O)COC(=O)/C=C/c1ccc(F)cc1	13	1.2%	3.9	11%	-0.4	3%[15.4 µM]

Remaining list, next part
SMILES	TRPML1 inh	ClpP mod	Menin-MLL FL inh	gsp antagonist	TRPML1 agonist	gsp agonist
CCCS(=O)(=O)NC(=O)C1(C)CCCN(C(=O)c2cc(-c3ccccc3)cs2)C1 (configuration not stated)	-18	-2.0%	nt	nt	0.1	nt
N#C/C(=C\C=C\c1ccccc1[N+](=O)[O-])C(=O)NCc1ccccc1	-4	nt	nt	-7%	-0.4	3%[15.4 µM]
CCOc1ncccc1C(=O)Nc1ccc(OC)c(S(=O)(=O)N2CCOCC2)c1	-10	0.5%	nt	7%	0.7	0%[15.4 µM]
COc1ccc2sc(C)nc2c1NC(C)=O	4	-1.3%	-8.3	4%	-0.3	15%
Cc1nc2nc(SCC(=O)NCCc3ccc(Cl)cc3)nn2c(C)c1Cc1ccccc1	-14	-6.1%	nt	nt	1.8	nt
O=C1C=CC(=Nc2cccc3c2C(=O)c2ccccc2-3)O1	4	nt	nt	-6%	28	9%
COc1ccc(C(=O)NC(=S)NCc2cccnc2)cc1Br	-5	2.0%	0.7	-29%	1.1	0%
COCCSc1nnc(NC(=O)c2cc(OC)c(OC)cc2[N+](=O)[O-])s1	39	-0.6%	0.1	-15%	0.4	-17%

Compounds from the list above containing bromine (three):
SMILES	TRPML1 inh	ClpP mod	Menin-MLL FL inh	gsp antagonist	TRPML1 agonist	gsp agonist
C[C@@H]1CN([C@@H](C)CO)C(=O)c2cc(Br)cnc2O[C@@H]1CN(C)Cc1cncnc1	-3	0.9%	nt	nt	-0.9	-10%
Cc1ccc(CNC(=O)C2CCN(S(=O)(=O)c3ccc(Br)s3)CC2)cc1	21	nt	1.7	-2%	2.7	-13%
COc1ccc(C(=O)NC(=S)NCc2cccnc2)cc1Br	-5	2.0%	0.7	-29%	1.1	0%

Assay outcomes from PubChem.
